Bioassay records from PubChem BioAssay.
Vif TR-FRET – inhibitors of Vif binding to APOBEC3G peptide, primary screen, biochemical, TR-FRET, GST-Vif 1-94, biotin-A3G peptide, dose response retest (AID 1117319) | TR-FRET GST-Vif / biotin-A3G peptide binding; higher % means a stronger effect; test concentration not given here; strong numbers were not always called active | inhibition, %, or IC50 in µM where a hit was titrated | 260,000 compounds, 0.57% hits;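 active means above the screen mean plus three standard deviations and confirmed in dose response; inconclusive means results disagree or hit not tested in dose response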;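 further: Vif residues 1-94 fused to GST binding biotinylated APOBEC3G peptide 110-148; 0% = full assay without inhibitor and 100% = GST in place of GST-Vif; retest series ran down from 100 µM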
Beta2AR agonist – human beta-2 adrenergic receptor agonism by FAP | P07550 | response, % (test concentration not listed) | Am2.2-beta2AR cells, FAP receptor internalization, flow cytometry; reference of the scale not given here | 340,000 compounds, 0.43% hits;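 active means response above a set limit, near 3 SD of response in nonfluorescent compounds, cut at about 42% in these data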;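 further: stock transfer was 100 nL into about 11 µL; a reference agonist was the positive control; negative values mostly stem from fluorescent compounds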
Ecoli growth – inhibitors of Escherichia coli growth | 330,000 compounds, 0.21% hits | OD600 absorbance (test concentration not listed) | AID 1053175 | OD600, 23 h; stronger effect = lower value;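 active means OD600 absorbance below the run mean of sample wells minus 3.6 SD, in any replicate, cut at about 0.56 in these data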;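 further: stock transfer was 300 nL into about 60 µL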
LANA-H2A inh – blocks KSHV LANA binding to histone H2A/H2B | AID 2629 | cell-free LANA-H2A/H2B peptide, fluorescence polarization | 320,000 compounds, 0.6% hits | inhibition, % (concentration not given with the values); in the data active means inhibition mostly above about 10%, no sharp cut-off; inactive means mostly below about 6.7%;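 further: stock transfer was 7.5 nL into about 10 µL; 0% = median of vehicle wells and 100% = median of positive control wells; one replicate is shown; the record names a cut of 25% in any replicate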
Target sequence (Q9QR71 whole entry, looked up): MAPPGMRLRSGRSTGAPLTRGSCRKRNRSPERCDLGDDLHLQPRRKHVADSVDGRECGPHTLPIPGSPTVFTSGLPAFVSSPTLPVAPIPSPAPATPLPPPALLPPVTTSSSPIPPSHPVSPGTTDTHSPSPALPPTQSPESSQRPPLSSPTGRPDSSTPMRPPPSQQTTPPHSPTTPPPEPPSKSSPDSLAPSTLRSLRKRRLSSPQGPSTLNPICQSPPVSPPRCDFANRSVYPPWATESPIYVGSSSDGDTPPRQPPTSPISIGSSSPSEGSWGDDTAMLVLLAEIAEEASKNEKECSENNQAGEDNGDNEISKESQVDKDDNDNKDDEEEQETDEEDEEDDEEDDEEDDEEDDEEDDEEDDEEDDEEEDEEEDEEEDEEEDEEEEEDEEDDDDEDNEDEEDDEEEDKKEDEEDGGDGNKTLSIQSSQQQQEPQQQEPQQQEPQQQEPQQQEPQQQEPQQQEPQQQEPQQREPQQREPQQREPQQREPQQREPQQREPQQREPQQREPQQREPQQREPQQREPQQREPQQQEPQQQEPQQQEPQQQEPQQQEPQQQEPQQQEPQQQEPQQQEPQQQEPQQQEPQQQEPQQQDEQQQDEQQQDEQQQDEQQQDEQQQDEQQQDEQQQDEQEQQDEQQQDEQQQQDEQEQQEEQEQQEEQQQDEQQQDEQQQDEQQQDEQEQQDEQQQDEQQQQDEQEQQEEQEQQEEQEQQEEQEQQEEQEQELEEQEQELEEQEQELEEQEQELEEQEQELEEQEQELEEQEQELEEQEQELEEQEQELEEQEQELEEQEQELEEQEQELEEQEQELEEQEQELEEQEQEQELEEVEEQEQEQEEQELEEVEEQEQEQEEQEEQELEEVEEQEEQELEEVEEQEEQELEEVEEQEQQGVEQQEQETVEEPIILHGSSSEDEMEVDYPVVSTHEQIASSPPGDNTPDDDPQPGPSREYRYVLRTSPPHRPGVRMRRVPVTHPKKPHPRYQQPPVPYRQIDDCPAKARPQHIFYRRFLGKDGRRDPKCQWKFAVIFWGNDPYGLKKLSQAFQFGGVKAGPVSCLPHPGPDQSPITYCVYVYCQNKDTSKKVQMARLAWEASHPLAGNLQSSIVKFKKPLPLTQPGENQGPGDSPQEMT
A1 inh – inhibitors of the anti-apoptotic protein A1, read as caspase activation; MEF A1-2A-BIM cells, Caspase-Glo 3/7 luminescence, 3 h; percent of clofoctol response, vehicle zero; caspase activation, % (test concentration not listed); 330,000 compounds, 0.066% hits;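 active means over half of replicate activation scores above 10%, or exactly half above 10 with the replicate mean above 10; inconclusive means replicate mean below 10 yet half the replicates above 10; inactive means over half of replicates below 10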;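 further: wells of about 30 µL received 50 nL stock; many hits fall short of the cut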
HNF4A DNA FP – change in binding of human HNF4 alpha to DNA; 360,000 compounds, 0.3% hits; activity change, % at 10 µM; AID 1224865; P41235; HNF4a-FITC DNA binding, fluorescence polarization, 1 h; in the data active means activity change above about 30%, passing the limit was not always enough;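 further: controls were the assay level and a saturating level of protein; the project sought stronger binding though the title names inhibitors; some compounds called inactive have numbers as strong as hits; positive values seem to mean higher polarization but the record does not say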
UCH37 inh – inhibitors of human deubiquitinating enzyme UCH37. Q9Y5K5. inhibition, % (no concentration beside the values). AID 588478. purified proteasome/UCH37, Ub-AMC cleavage fluorescence. 330,000 compounds, 0.33% hits;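 active means mean of two replicates above 20%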;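 further: 0% = compound-free wells with enzyme and 100% = wells lacking proteasome; stock transfer was 100 nL into about 20 µL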
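assay system = human UCH37 enzyme supplied as purified proteasome complex | amount = proteasome at 0.15 nM in the dispensed enzyme solution | schedule = 30 min compound-proteasome preincubation then 25 min substrate reaction, room temperature | measured by = fluorescence, ex 355 nm, em 460 nm | benchmarks = no-proteasome wells (full inhibition) and compound-free wells (no inhibition)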
The depositor's hits bear a star; ? = inconclusive; nt = not tested or not shown; & = joins results of further samples.

SMILES	Vif TR-FRET	Beta2AR agonist	Ecoli growth	LANA-H2A inh	A1 inh	HNF4A DNA FP	UCH37 inh
COCCOC1CCN(C(=O)c2cc(COc3ccc(F)cc3F)on2)CC1	23%	-3	0.7	-20	0.5	-0.8	4.0
CS(=O)(=O)N(CC(=O)O)c1cc(C(F)(F)F)ccc1Cl	nt	1	0.68	-0.3	-0.9	1.5	-1.4
CCOC(=O)c1cnc2c(N=Nc3ccccc3)c(N)nn2c1N	-7%	-1	0.73	-1.0	-6.2	-4.1	5.1
Cc1ccc2c(c1)NCC(C(=O)NCc1ccccc1)O2 (stereo unspecified)	4%	0	0.71	-4.1	0.5	-1.6	3.9
Cc1ccc(NC(=O)COC(=O)C2CC3CCCC(C2)C3=O)c([N+](=O)[O-])c1 (stereo unspecified)	2%	-3	0.64	-0.6	1.0	-4.2	1.9
Cn1c2ccsc2c2ncn(Cc3ccc(F)cc3)c(=O)c21	nt	6	0.67	nt	nt	-2.6	1.1
CCCNC(=O)c1cccc(COCC(F)(F)F)c1	1%	13	0.64	5.1	-0.2	-1.1	0.6
COC(=O)/C(=C/c1c[nH]c2ccccc12)[N+](=O)[O-]	9%	39	0.73	-8.6	-0.2	-0.3	2.2
CSc1nc(SCC(=O)O)c2c3c(sc2n1)COC(C)(C)C3	nt	9	0.66	0.2	0.3	3.2	-5.9
O=C(NCCN1CCOCC1)c1cc(Cl)ccc1[N+](=O)[O-]	20%	nt	nt	0.1	1.2	nt	nt
Cc1cccc(N(CC(=O)NCCSCc2ccco2)S(=O)(=O)c2ccccc2)c1	19%	12	0.67	3.3	-0.2	-3.3	0.3
CC(=O)C1=C(O)C(=O)N(c2nccs2)C1c1ccccc1 (stereo unspecified)	-4%	3	0.77	0.1	-0.3	3.4	-3.1
CCOC(=O)c1nc(NCc2cccc(OC)c2)c2ccccc2n1	-3%	3	0.71	1.6	0.4	-1.3	5.4
O=S(=O)(/N=C(/Nc1cc(N2CCOCC2)ncn1)c1ccc(F)cc1)c1ccccc1	?	-7&-15	nt	2.2	-0.3	0.0&3.3	nt
Cn1nnc(NC(=O)c2cccc(F)c2)n1	>100µM*	6	0.72	5.7	0.2	2.7	0.0
O=C(Nc1cccc(F)c1)c1ccc(CSc2ccccc2)o1	2%	-2	0.6	3.0	-2.0	2.6	1.6
Cc1cc(C(=O)N/N=C/c2ccc(-c3ccc([N+](=O)[O-])cc3Cl)o2)n[nH]1	nt	20	nt	15	-0.9	4.1	nt
COc1ccc(NC(=O)[C@@H](NC(=O)c2ccccc2F)C(C)C)cc1S(=O)(=O)N1CCOCC1	-9%	-1	0.7	-8.8	-0.1	-1.8	1.4
COC(=O)CNC(=O)c1ccccc1C	-7%	1	0.69	1.2	0.2	-2.4	4.7
COc1ccc(CC(=O)N2N=C(C)CC2(O)C(F)(F)F)cc1 (stereo unspecified)	nt	7	0.66	2.0	0.2	-1.0	-0.6

Quoted at random: 3 entries already listed
SMILES	Vif TR-FRET	Beta2AR agonist	Ecoli growth	LANA-H2A inh	A1 inh	HNF4A DNA FP	UCH37 inh
Cn1nnc(NC(=O)c2cccc(F)c2)n1	>100µM*	6	0.72	5.7	0.2	2.7	0.0
CSc1nc(SCC(=O)O)c2c3c(sc2n1)COC(C)(C)C3	nt	9	0.66	0.2	0.3	3.2	-5.9
COC(=O)/C(=C/c1c[nH]c2ccccc12)[N+](=O)[O-]	9%	39	0.73	-8.6	-0.2	-0.3	2.2

Arranged by value in Beta2AR agonist (high to low): some entries from above
Molecule,Beta2AR agonist
CCOC(=O)c1nc(NCc2cccc(OC)c2)c2ccccc2n1,3
COc1ccc(NC(=O)[C@@H](NC(=O)c2ccccc2F)C(C)C)cc1S(=O)(=O)N1CCOCC1,-1
O=C(Nc1cccc(F)c1)c1ccc(CSc2ccccc2)o1,-2

Next section:
SMILES	Vif TR-FRET	Beta2AR agonist	Ecoli growth	LANA-H2A inh	A1 inh	HNF4A DNA FP	UCH37 inh
CCCC(C(=O)n1nc(C)cc1C)C(NS(=O)(=O)c1ccc(C)cc1)c1ccccc1 (stereo unspecified)	-4%	-1	0.74	-0.5	0.4	-0.1	3.1
CCOC(=O)C1=C(C)N(c2ccccc2)C(=O)C1	-3%	13	0.63	4.7	-0.9	0.5	4.8
COc1cccc(NC(=O)Cc2nnc(SCCOc3ccccc3)n2C)c1	3%	15	0.69	2.7	-0.9	-0.8	1.0
O=C(COc1ccccc1Br)Nc1ccccc1C(F)(F)F	-10%	4	0.68	2.5	0.5	0.9	4.4
CCCC(C(=O)NC1CCCC1)N(Cc1ccccc1)C(=O)c1snc(C(N)=O)c1N (stereo unspecified)	-4%	15	nt	-1.1	1.3	-1.6	nt
N#CCCn1cc(C(=O)Nc2ccccn2)c(-c2ccccc2)n1	nt	-8	0.62	0.4	-0.1	5.2	2.4
CNC(=O)Nc1cc(C(F)(F)F)cc(C(F)(F)F)c1	31%	-1	0.65	-2.2	-0.1	-1.6	1.7
CCC(C)NC(=O)/C=C/c1ccc(S(=O)(=O)NCc2ccco2)cc1 (stereo unspecified)	1%	-1	0.69	-0.1	-1.1	-0.9	2.9
COCCNC(=S)N1CCN(C(c2ccccc2)c2ccccc2)CC1	nt	-5	0.71	-0.5	0.9	1.3	3.4
COc1ccccc1CCNC(=O)c1cc(COc2cccc(C(F)(F)F)c2)on1	nt	-1	0.71	0.5	-0.2	2.5	2.4
Cc1cccc(C)c1NC(=S)N1CCCCCC1	nt	-6	nt	0.0	0.5	0.9	nt
Cc1ccc(S(=O)(=O)N2CCN(C(=O)CCC(=O)OCC(=O)Nc3cccc(C#N)c3)CC2)cc1	-1%	-5	0.68	-1.4	1.3	0.8	-0.5
Cc1c(NC(=O)C(C)N2C(=O)NC3(CCC(C)CC3)C2=O)c(=O)n(-c2ccccc2)n1C (stereo unspecified)	-1%	6	0.71	-3.8	-0.3	4.9	5.3
COCc1cc(=O)oc2cc(NS(=O)(=O)c3ccc(C)cc3)ccc12	9%	5	0.66	-1.5	-0.1	1.1	-337
Cc1ccc(OCCCN2C(=O)C(=O)c3cc(C)ccc32)cc1	-5%	15	0.7	0.6	0.6	0.1	1.0
O=C(CSC(=S)N1CCCC1)Nc1cc2c(cc1Br)OCCO2	nt	3	0.69	2.6	0.5	2.0	0.1
OC(c1ccccc1)(c1ccccc1)c1ncc[nH]1	nt	-5	0.72	-13	0.3	-3.2	0.6
O=C(NCc1ccccc1CN1CCCC1)c1ccc(Cl)c(N2CCCC2=O)c1	nt	-1	0.73	-1.9	1.1	-5.5	-0.4
CCOc1ccc(S(=O)(=O)n2cnc(C)c2)cc1	nt	-6	0.7	4.1	1.6	-0.7	-1.4
CCN(CC(=O)NCc1cccs1)C(=O)c1ccc(OC)c(OC)c1	-1%	-2	0.65	-1.9	0.1	-1.0	2.7
Cc1cccc(NC(=O)c2ccc(COc3ccccc3[N+](=O)[O-])o2)n1	nt	4	0.65	3.9	-0.7	0.6	2.6
CCN(CC)S(=O)(=O)c1ccc(C(=O)Oc2coc(CSc3nc(C)cc(C)n3)cc2=O)cc1	11%	6	0.7	-2.2	-0.2	-0.4	2.9
Cc1ccc(N=Cc2c(O)n(-c3nccs3)c(=O)c3ccccc23)cc1	nt	-10	0.7	-0.8	1.0	4.2	4.2
NC(=NC(=O)c1ccc(OCC(F)(F)F)nc1)c1ccc(Cl)cc1	nt	-3	0.62	-1.5	-0.5	3.0	3.0
O=S(=O)(c1ccccc1)N1CCN(Cc2ccc(Cl)cc2)CC1	29%	-1	0.67	1.8	-0.1	-1.4	4.4
Cc1[nH]nc2c1C1(CCN(Cc3ccccc3)CC1)C(C#N)=C(N)O2	8%	-4	0.68	2.1	0.4	-5.3	0.8
Cc1ccc(N(C(=O)c2csnn2)C(C(=O)NC2CCCC2)c2ccncc2)c(C)c1 (stereo unspecified)	-2%	-10	0.67	-1.0	0.1	-1.7	3.0
Cc1csc(NC(=O)CSc2ccc3nnc(-c4ccncc4)n3n2)n1	?	-8	0.69	1.0	0.5	-0.8	-0.3
CCN(CC(=O)NC(C)(C)C)C(=O)c1ccccc1SCC(=O)NC1CCCCCCC1	nt	-8	0.64	-0.2	-0.7	-2.3	0.7
O=C(NCc1ccc2c(c1)OCO2)c1ccccc1Cl	nt	1	0.68	3.3	0.1	-0.9	1.4
O=C(COC(=O)c1ccc2ccccc2n1)NC1CCCCC1	nt	-8	0.7	nt	nt	-4.7	1.9
CC(C)(C)NC(=O)C(c1cccs1)N(C(=O)c1csnn1)c1ccccc1F (stereo unspecified)	-4%	1	0.69	2.2	0.8	-1.5	1.5
COc1ccccc1NC(=O)CSc1ncc(CO)n1Cc1ccc(F)cc1	nt	2	0.66	-0.7	0.8	0.4	1.9
CCCCn1c(N)c(N(CC)C(=O)c2cnc(C)cn2)c(=O)[nH]c1=O	6%	-3	0.65	-4.7	0.0	-1.5	2.5
COc1ccc(C(C)=O)cc1CN1C(=O)NC(c2ccccc2)(c2ccccc2)C1=O	nt	-1	0.69	-2.0	0.3	-1.0	0.5
O=C1CC2(CCN(C(=O)c3cccc(Cl)c3)CC2)Oc2ccccc21	3%	-3	0.68	1.6	0.9	5.5	-22
Cc1ccc(Sc2ncnc3onc(C)c23)cc1	5%	21	0.73	-5.0	0.7	5.2	6.3
Cc1cc(NS(=O)(=O)c2ccc(NC(=S)NC(=O)c3ccc(F)cc3Cl)cc2)no1	-4%	-5	0.67	-0.5	-0.2	1.9	7.8
COc1ccc(/C=N/c2c(-c3ccco3)nc3ccccn23)cc1OC	?	18	nt	-0.6	0.4	-7.6	nt
O=C(Nc1ccc2nn(-c3ccccc3)nc2c1)c1ccc(Br)o1	4%	5	0.71	-0.2	-0.4	-2.4	-29

Complete entries, looked up by structure. Screens in order: Vif TR-FRET, Beta2AR agonist, Ecoli growth, LANA-H2A inh, A1 inh, HNF4A DNA FP, UCH37 inh
`O=C(Nc1ccc2nn(-c3ccccc3)nc2c1)c1ccc(Br)o1` as listed: 4%, 5, 0.71, -0.2, -0.4, -2.4, -29
`Cc1ccc(N(C(=O)c2csnn2)C(C(=O)NC2CCCC2)c2ccncc2)c(C)c1` (stereo unspecified) as listed: -2%, -10, 0.67, -1.0, 0.1, -1.7, 3.0
`O=S(=O)(c1ccccc1)N1CCN(Cc2ccc(Cl)cc2)CC1` as listed: 29%, -1, 0.67, 1.8, -0.1, -1.4, 4.4

Shown in markdown: three of the compounds above
| Compound | Vif TR-FRET | Beta2AR agonist | Ecoli growth | LANA-H2A inh | A1 inh | HNF4A DNA FP | UCH37 inh |
| --- | --- | --- | --- | --- | --- | --- | --- |
| CCOc1ccc(S(=O)(=O)n2cnc(C)c2)cc1 | nt | -6 | 0.7 | 4.1 | 1.6 | -0.7 | -1.4 |
| O=C(CSC(=S)N1CCCC1)Nc1cc2c(cc1Br)OCCO2 | nt | 3 | 0.69 | 2.6 | 0.5 | 2.0 | 0.1 |
| O=C(NCCN1CCOCC1)c1cc(Cl)ccc1[N+](=O)[O-] | 20% | nt | nt | 0.1 | 1.2 | nt | nt |

The list continues.
SMILES	Vif TR-FRET	Beta2AR agonist	Ecoli growth	LANA-H2A inh	A1 inh	HNF4A DNA FP	UCH37 inh
CSCCC1(C(=O)O)NC(c2ccccc2O)C2C(=O)N(C(C)C)C(=O)C21 (stereo unspecified)	?	13	0.72	3.6	0.6	0.6	6.6
COc1cc(CNCc2ccncc2)ccc1OCC(N)=O	-1%	-3	nt	nt	nt	1.2	nt
COC(=O)Cn1cnc2sc(C)c(S(=O)(=O)N3CCN(c4ccccc4OC)CC3)c2c1=O	4%	-6	0.73	-3.2	0.3	-2.5	1.1
CSc1ccc(C(=O)C2CCCN(C(=O)c3cc4cc(F)ccc4[nH]3)C2)cc1 (stereo unspecified)	-7%	-7	0.66	1.2	-0.1	0.0	-1.8
